# PrP 5UTR inh: inhibition of PrP 5' UTR reporter expression | inhibition, % (concentration not given with the values) | cell-based PrP 5' UTR mRNA reporter, plate reader | actives 0.35% (n = 340,000);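 active = every replicate at 50% or more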;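 also: 0 = median of the neutral control wells; tested in H4 reporter cells; numbers are from one replicate; inactives centre near -14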
# BJeLR viability: BJeLR cell viability loss | BJeLR (HRASV12) viability, CellTiter-Glo ATP luminescence, 48 h; reference of the scale not given here | inhibition, % (concentration not given with the values) | actives 0.17% (n = 300,000) | AID 1554;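 active = replicate mean above 50%; inconclusive = above 50% but judged a plate artefact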;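 also: 50 nL library stock added to about 25 µL; numbers are from one replicate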
# Sa RN4220 lethal: kills Staphylococcus aureus RN4220. S. aureus RN4220 growth, OD600, 16 h. inhibition, % (no concentration beside the values). actives 0.33% (n = 330,000);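 active = z-score of -3 or lower and OD600 up to 0.18 on both plates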;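 also: plate controls were untreated cells for no effect and reference antibiotic for full effect; stock transfer was 100 nL into about 80 µL; one replicate is shown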
# Mtb hypoxia inh: Mtb hypoxia fluorescent reporter inhibition; M. tuberculosis hypoxia-regulated fluorescent reporter, fluorescence; fluorescence inhibition, % (concentration not given with the values); actives 0.1% (n = 300,000); AID 1159583;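 active = 35 to 45% if threefold the growth effect, above 45% if 1.5-fold the growth effect; inactive = the rest, general growth blockers included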;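 also: wells of about 50 µL received 100 nL stock; 0% = vehicle wells and 100% = reference inhibitor wells; whole bacteria with a GFP reporter of the hypoxia response; strong numbers were not always called active; many hits fall short of the cut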
# Bead autofluor: counter-screen for toxin protease inhibitors: compound fluorescence | compound autofluorescence counterscreen, microsphere flow cytometry; stronger effect = higher value | fluorescence intensity (concentration not given with the values) | actives 3.1% (n = 360,000) | AID 624483;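 active = at least 3 SD above the mean of all compounds, about 16000 in these data; inconclusive = too few beads counted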;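 also: 100 nL of 1 mM stock went into each well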
# ugtP null kill: growth inhibition of S. aureus ugtP deletion strain; S. aureus RN4220 ugtP deletion, OD600 growth, 16 h; some inactives read as strong as hits; growth inhibition, % (test concentration not listed); actives 0.54% (n = 330,000); AID 1259309;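 active = z-score under -3 and OD600 up to 0.15 on both plates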;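 also: plate controls were untreated wells for no effect and antibiotic for full effect; wells of about 80 µL received 100 nL stock; the first replicate is given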
# Mtb hypoxia inh growth: second read-out of Mtb hypoxia inh, no call of its own (marks repeat the call); growth inhibition, %; measured here: M. tuberculosis growth (absorbance);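 0% = vehicle and 100% = reference antibiotic; read after six days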
# An asterisk follows results filed as active; ? = inconclusive; · = not tested or not shown; & = joins results of further samples.
# Every second line gives: PrP 5UTR inh	BJeLR viability	Sa RN4220 lethal	Mtb hypoxia inh	Mtb hypoxia inh growth	Bead autofluor	ugtP null kill
- O=C(O)COc1ccc(NC(=O)c2ccco2)cc1
 : -4	3	3.6	10	15	9014	2
- N#CC(=C1CCCC1)c1nc(-c2cc3ccccc3oc2=O)cs1
 : -120	5	15	9	7	11044	-6
- COc1ccccc1C=NOCc1ccc(C#N)cc1
 : ·	·	8.8	-9	-4	·	15
- Cc1ccc(-c2csc(NC(=O)C[n+]3cc(-c4ccccc4)n4c3CCC4)n2)cc1
 : ·	3	-9.8	26	33	4056	-39
- CCCCCCOc1ccc(OC(=O)c2cccnc2)cc1
 : 6	1	2.1	8	15	8785	-1
- O=C(CCc1ccccc1)Nc1ccc(NC(=O)c2ccco2)cc1
 : -49	0	4.6	10	10	9258	8
- CCOC(=O)N1CCN(CC(O)COc2ccc(CC)cc2)CC1 (centres undefined)
 : -17	-1	-1.2	2	4	3884	4
- CC(C)Oc1ccc(S(=O)(=O)N2CCCCC2)cc1NC(=O)C1CCC1
 : -58	19	0.1	6	8	6338	10
- CCC12CN3CCN(CC(C3)/C1=N\O)C2
 : -24	-2	·	·	·	2837	·
- CC(=O)Nc1nnc(CCS(=O)(=O)c2ccc(Cl)cc2)s1
 : -2	·	1.3	9	4	3079	5
- CCc1cc(C(=O)N2CCN(c3ccccn3)CC2)sc1C
 : -1	-10	3.2	13	5	·	5
- O=C(c1nc2nc(-c3ccc(Cl)cc3)cc(C(F)(F)F)n2n1)N1CCOCC1
 : -20	1	9.8	9	20	5789	-12
- O=C(CN1CCN(CCC(=O)Nc2ccccc2F)CC1)Nc1ccc(F)cc1
 : -4	·	-4.1	·	·	2847	5
- CCOc1ccc(S(=O)(=O)N2CCN(C(=O)CN3C(=O)NC(C)(C)C3=O)CC2)cc1
 : ·	·	0.4	3	7	?	4
- Cc1ccc(/C=C/C(=O)O)cc1S(=O)(=O)N1CCCc2ccccc21
 : -19	-1	7.0	-1	-1	5007	-13
- COc1ccc(C(C(=O)NC2CCCCC2)N(C(=O)c2csnn2)C2CC2)cc1 (centres undefined)
 : -1	-4	2.6	1	3	5662	10
- CCN(CC(=O)Nc1ccc([N+](=O)[O-])cc1OC)c1ccccc1
 : -10	-13	4.0	0	1	7411	-3
- COc1cc(OC)cc(C(=O)N2CCN(C(=O)c3ccc(OC)c(OC)c3)CC2)c1
 : -13	2	0.3	5	2	3917	5
- Cc1ccccc1NS(=O)(=O)c1cc(C(=O)NCc2ccncc2)ccc1Cl
 : -13	-4	1.2	6	14	5291	3
- O=C1CCCN2N=C(SCC(=O)Nc3ccc(Cl)cc3)SC2=N1
 : -21	-3	2.4	-2	4	3705	3
- Cc1ccc(S(=O)(=O)NNC(=O)C(=O)NNS(=O)(=O)c2ccc(C)cc2)cc1
 : -8	-2	2.1	2	-2	2588	-28
- CC1Cc2cc(S(=O)(=O)N3CCC(C(=O)Nc4ccccn4)CC3)ccc2N1C(=O)C1CCC1 (centres undefined)
 : -8	3	-1.6	-6	-4	5592	1
- COc1ccc(Nc2nc(N)nc(CCl)n2)cc1
 : -35	47	8.4	25	23	3676	12
- O=C(COC(=O)CCNS(=O)(=O)c1ccc(Cl)cc1)NCc1ccco1
 : -39	-18	-6.7	·	·	·	6
- Cc1nc(NC(=O)CSc2nnc(-c3ccccc3)c(-c3ccccc3)n2)c(Cl)cc1Cl
 : -13	-6	-8.0	-4	5	10180	5
- O=C(CC=NO)Nc1ccc(Oc2ccccc2)cc1
 : ·	·	2.5	15	8	·	1
- Cc1occc1-c1nnc(SCC(=O)NC(C)(C)C)n1CC(C)C
 : -14	-2	-2.5	-3	-7	4555	-7
- CCOC(=O)C1(CCOc2ccccc2)CCN(Cc2ccccc2OC)CC1
 : -1	4	3.2	15	4	4241	11
- CCCCCCCCC(=O)NN=C(C)c1ccco1
 : ·	·	-3.5	-3	-2	·	-18
- Cc1ccc2oc(C(Cl)(Cl)Cl)cc(=O)c2c1
 : -13	28	19	7	7	7590	-2

# Structural class: the compounds so far containing an aryl methoxy group (six)
# Every second line gives: PrP 5UTR inh	BJeLR viability	Sa RN4220 lethal	Mtb hypoxia inh	Mtb hypoxia inh growth	Bead autofluor	ugtP null kill
- COc1ccccc1C=NOCc1ccc(C#N)cc1
 : ·	·	8.8	-9	-4	·	15
- COc1ccc(C(C(=O)NC2CCCCC2)N(C(=O)c2csnn2)C2CC2)cc1 (centres undefined)
 : -1	-4	2.6	1	3	5662	10
- CCN(CC(=O)Nc1ccc([N+](=O)[O-])cc1OC)c1ccccc1
 : -10	-13	4.0	0	1	7411	-3
- COc1cc(OC)cc(C(=O)N2CCN(C(=O)c3ccc(OC)c(OC)c3)CC2)c1
 : -13	2	0.3	5	2	3917	5
- COc1ccc(Nc2nc(N)nc(CCl)n2)cc1
 : -35	47	8.4	25	23	3676	12
- CCOC(=O)C1(CCOc2ccccc2)CCN(Cc2ccccc2OC)CC1
 : -1	4	3.2	15	4	4241	11

# 4 entries drawn at random from those above, as already listed:
# Every second line gives: PrP 5UTR inh	BJeLR viability	Sa RN4220 lethal	Mtb hypoxia inh	Mtb hypoxia inh growth	Bead autofluor	ugtP null kill
- COc1ccc(Nc2nc(N)nc(CCl)n2)cc1
 : -35	47	8.4	25	23	3676	12
- CC1Cc2cc(S(=O)(=O)N3CCC(C(=O)Nc4ccccn4)CC3)ccc2N1C(=O)C1CCC1 (centres undefined)
 : -8	3	-1.6	-6	-4	5592	1
- O=C(CCc1ccccc1)Nc1ccc(NC(=O)c2ccco2)cc1
 : -49	0	4.6	10	10	9258	8
- CCCCCCCCC(=O)NN=C(C)c1ccco1
 : ·	·	-3.5	-3	-2	·	-18

# Further structures follow:
# Every second line gives: PrP 5UTR inh	BJeLR viability	Sa RN4220 lethal	Mtb hypoxia inh	Mtb hypoxia inh growth	Bead autofluor	ugtP null kill
- Cc1cc[n+](-c2[nH]c(=O)sc2/C=N/NC(=O)c2ccccc2[O-])cc1C
 : -11	7	·	·	·	2060	·
- CCOc1ccc2[nH]cc(S(=O)(=O)c3ccc(C)cc3)c(=O)c2c1
 : -14	9	5.9	-6	-8	4154	-9
- COc1cccc(C(C#N)N2CCOCC2)c1 (centres undefined)
 : -1	1	4.5	10	-7	3152	-4
- O=C(/C=C/c1ccccc1)Nc1ccc(N2CCCCC2)cc1
 : -104	9	5.3	3	5	9793	8
- Cc1ccc(N2CSC3=C(C#N)C(c4cccs4)CC(=O)N3C2)cc1 (centres undefined)
 : -25	-10	-7.7	4	9	4262	-5
- CCc1ccc2[nH]c(=O)c(CN(CCO)C(=O)NCc3ccccc3)cc2c1
 : -5	-1	15	-8	12	3061	0
- Cc1nnc(SCC(=O)NC2CCCCCC2)n1C
 : -10	-3	2.5	7	-8	5614	2
- COc1ccc(OC)c(S(=O)(=O)N2Cc3ccccc3CC2C(=O)Nc2nccs2)c1 (centres undefined)
 : 69*	·	4.1	·	·	2712	-3
- COc1ccc(Cl)cc1NC(=O)COC(=O)CCCN1C(=O)c2ccccc2C1=O
 : 5	-14	3.4	-5	-1	2890	-9
- CN(C)CCCNCCCNC(=O)C(=NO)c1ccccn1
 : ·	·	1.4	0	1	·	1
- O=C(COc1ccc2ccccc2c1)Nc1ccncc1
 : -26	13	2.4	-1	10	3971	10
- Cn1cccc1C(=O)/C(C#N)=C/c1ccc(F)cc1
 : -12	-10	2.6	7	7	5880	16
- CC(C)NCC(O)c1ccc(NS(C)(=O)=O)cc1 (centres undefined)
 : -18	2	8.5	1	5	5922	-3
- COc1ccc(NC(=O)CSc2nc(O)cc(=O)n2-c2ccccc2OC)cc1
 : -11	0	2.7	1	3	11211	-2
- COc1ccc(CN(CC(=O)NC(C)C)C(=O)CCC(=O)Nc2nccs2)cc1
 : 9	6	3.1	1	-1	3567	5
- COC(=O)C(C)Oc1ccc2c(-c3cccc([N+](=O)[O-])c3)cc(=O)oc2c1 (centres undefined)
 : -25	7	2.1	7	2	21222*	-4
- COC(=O)N/N=C\c1cccc(OC(=O)c2cccs2)c1
 : -25	-6	·	·	·	4463	·
- Cc1ccc(C)c(C(=O)C(C)Sc2nc3nn(-c4ccccc4)c(=O)c-3c3n2CCCCC3)c1 (centres undefined)
 : -12	4	5.8	-7	-4	5645	-7
- Cc1ccc(S(=O)(=O)NCc2ccc(C(=O)N3CCCC3)cc2)cc1
 : -42	9	2.8	3	-14	10912	6
- O=C1CCC(=O)N1CC(O)COc1ccccc1 (centres undefined)
 : -17	-1	1.0	7	0	3945	14
- CCN1CCCC1CNC(=O)CCc1nc(-c2ccc(C)cc2)no1 (centres undefined)
 : 3	·	-0.2	·	·	7769	3
- O=C(Nc1cccc(O)c1)c1cccc(NC(=O)c2cccs2)c1
 : -20	-13	5.0	54*	-5.3*	3874	-1
- Cc1ccc(OCCCn2c(=O)sc3ccccc32)cc1
 : -19	11	6.7	·	·	3279	20
- CCCCN(C(=O)c1cc(S(=O)(=O)N2CCCCCC2)ccc1OC)c1c(N)n(CCC)c(=O)[nH]c1=O
 : -19	4	3.4	7	1	·	4
- CCCCNC(=O)OC(C)CNC(=O)OC (centres undefined)
 : -6	-4	1.5	20	22	2959	6
- O=C(CN1c2ccccc2Sc2ccccc21)NNC(=S)Nc1ccc(Cl)cc1
 : -18	5	-4.6	16	10	3466	-5
- O=c1c2sc3nc(N4CCOCC4)c4c(c3c2ncn1C(c1ccccc1)c1ccccc1)CCCC4
 : -16	·	3.2	8	1	3361	1
- Cc1cc(=O)oc2cc(OC(C)C)ccc12
 : -21	2	6.7	5	4	5750	0
- CCOC(=O)N1CCC(NC(=O)C2CCCN(Cc3nc(-c4cccc(C)c4)oc3C)C2)CC1 (centres undefined)
 : -32	11	4.7	18	3	6201	3
- COc1ccc2c(C(=O)CN3CCN(CCO)CC3)c[nH]c2c1
 : -5	0	1.6	8	4	11297	4

# Complete entries from above. Order of screens: PrP 5UTR inh, BJeLR viability, Sa RN4220 lethal, Mtb hypoxia inh, Mtb hypoxia inh growth, Bead autofluor, ugtP null kill
# O=C(COc1ccc2ccccc2c1)Nc1ccncc1 across the screens: -26, 13, 2.4, -1, 10, 3971, 10
# O=c1c2sc3nc(N4CCOCC4)c4c(c3c2ncn1C(c1ccccc1)c1ccccc1)CCCC4 across the screens: -16, ·, 3.2, 8, 1, 3361, 1
# Cc1nnc(SCC(=O)NC2CCCCCC2)n1C across the screens: -10, -3, 2.5, 7, -8, 5614, 2

# Additional compounds
# Every second line gives: PrP 5UTR inh	BJeLR viability	Sa RN4220 lethal	Mtb hypoxia inh	Mtb hypoxia inh growth	Bead autofluor	ugtP null kill
- CC(=O)Nc1nc(C)c(CCC2OCCO2)c(=O)[nH]1
 : -5	0	3.4	4	8	3662	4
- Cc1ccc(-c2nn3c(C)nnc3c3ccccc23)cc1S(=O)(=O)NC(C)(C)CO
 : -15	3	3.9	1	5	4198	-1
- O=C(NNC(=O)c1cccs1)c1ccco1
 : 64*	11	-2.3	-4	1	3409	-11
- COc1ccc(NC(=O)C2CCC(CNc3c(N4CCCCC4)c(=O)c3=O)CC2)cc1OC (centres undefined)
 : 27&-9	10	2.8&2.1	-8&6	-2&2	3784&6721	0&1
- O=C(C[n+]1cc(-c2ccc(Cl)cc2)n2c1CCC2)Nc1nc(-c2ccccc2)cs1
 : -76	-1	-12	19	22	4447	-22
- CCNC(=S)N(CCc1c(C)[nH]c2ccc(Cl)cc12)Cc1cccnc1
 : -17	-12	27	-1	1	4431	0
- COC(=O)/C=C1\S/C(=N/N=Cc2ccc(Cl)cc2)NC1=O
 : ·	·	0.6	5	-4	·	-17
- CSc1n[nH]c(-c2sccc2OCc2ccc(C)cc2)n1
 : -20	-8	4.3	1	9	9569	-8

# Compound activity from PubChem BioAssay.
